# Screening results as filed in PubChem BioAssay.
# NPYLR7 agonist – activates Aedes aegypti NPYLR7 receptor | HEK293T NPYLR7/Galpha15, GCaMP6s calcium fluorescence | activation, % at 10 µM | 270,000 tested, 0.15% active; in the data active means activation above about 40%;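 further: 0% = vehicle and 100% = reference agonist at the receptor; some compounds past the cut are filed as inactive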
# NPYLR7 agonist max-min – second read-out of NPYLR7 agonist, no call of its own (marks repeat the call); activation, %; measured here: Max-Min RFU normalised activation; some inactives read as strong as hits;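 span of the calcium signal over five minutes; 0% = vehicle and 100% = native peptide agonist; compound fluorescence can raise it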
# An asterisk follows results filed as active.
# Start of the data: the first two compounds as a preview:
SMILES,NPYLR7 agonist,NPYLR7 agonist max-min
OC1CCCc2c(OCCCOc3ccc(F)cc3)cccc21 (stereo not drawn),0,0
Cc1ccc2nc(CN(C)c3cc(C4CCNCC4)nc(C)n3)[nH]c2c1,4,19

# Results, from the start:
SMILES,NPYLR7 agonist,NPYLR7 agonist max-min
OC1CCCc2c(OCCCOc3ccc(F)cc3)cccc21 (stereo not drawn),0,0
Cc1ccc2nc(CN(C)c3cc(C4CCNCC4)nc(C)n3)[nH]c2c1,4,19
COc1cccc(CNC(=O)C2CCN(C(=O)[C@@H]3CCCN3C(=O)Cc3nc(-c4cccc(F)c4)oc3C)CC2)c1,4,4
COc1ccccc1-c1ccc2c(c1)C(C)(Cc1cccc(C(F)(F)F)c1)C(=O)N2 (stereo not drawn),2,1
O=c1c2c(nc(SCc3ccccc3)n1-c1ccc(F)cc1)CCS2,1,35
COc1ccc(C(=O)NC2CC(=O)N(Cc3cccc(F)c3)C2)cc1O (stereo not drawn),9,6
O=C(CSc1ncc(S(=O)(=O)c2ccc(Cl)cc2)c(=O)[nH]1)N1CCCc2ccccc21,5,5
O=C(C1=CCCCC1)N1CCCC(Nc2ccc(F)cc2)C1 (stereo not drawn),1,-1
O=C(NCCSCc1cccs1)c1cc(Br)ccc1Cl,3,-2
COc1ccc(CCn2c(N)c(C(=O)NCC3CCCO3)c3nc4ccccc4nc32)cc1 (stereo not drawn),2,7
CCOC(=O)c1c(C)noc1N,6,6
Cc1nnc(SCC(=O)N2CCCC(CNC(=O)c3ccc(-c4ccccc4)cc3)C2)o1 (stereo not drawn),13,6
CC[N+](CC)(CC)CCC(O)(c1ccccc1)C1CCCCC1 (stereo not drawn),-8,-15
COC(=O)c1sc(N2C(=O)C(O)=C(C(=O)c3cccs3)C2c2ccccc2F)nc1C (stereo not drawn),0,0
CCOC(=O)Cc1n[nH]c(CNc2ccc(C)cc2)n1,1,0
CN1CCCN(c2ncccc2CNC(=O)C(O)c2ccc(F)cc2)CC1 (stereo not drawn),12,4
COc1ccccc1N1CCN(c2cc(Oc3ccc(Cl)c(C)c3)ncn2)CC1,5,9
N#Cc1ccsc1NC(=O)CCN1CCOC(c2ccc(Cl)cc2)C1 (stereo not drawn),5,2
Cc1c(N)cccc1-n1cccc1,-3,-9
CC(CCc1ccccc1)NC(=O)c1cc(-c2ccccc2Cl)nn1-c1cccc(Cl)c1 (stereo not drawn),-2,8
Fc1ccc(C2=Nc3ncnn3C(c3cccc(Br)c3)C2)cc1 (stereo not drawn),7,4
Cc1ccccc1CN1C[C@@H]2C[C@@H](c3cccs3)N3CCC[C@@]23C1=O,-1,-4
O=C(NCc1scnc1-c1ccccc1)c1ccc(-n2cnnc2)cc1,18,6
Cc1ccccc1C1CC(N(C(=O)c2ccc(Br)cc2)C2CC2)C1 (stereo not drawn),3,1
Cc1ccc(-c2nc(CC(=O)N(C)Cc3ccc(C)o3)cs2)cc1,-2,-3
O=C(COc1coc(CN2CCc3ccccc32)cc1=O)OCc1ccccc1,1,0
COCCN(Cc1nccn1Cc1cccc(C(F)(F)F)c1)C(=O)c1cccc(OC)c1,8,4
CN(CC[C@@H](Oc1ccc(-c2ccccc2)cc1)c1ccc(F)cc1)CC(=O)O,-14,-20
COc1c[nH]c(C(=O)N2CCCC(C(=O)c3ccc(Cl)cc3C)C2)cc1=O (stereo not drawn),-9,-13
CCc1ccc(C(=O)Nc2ccc(N(C)C)c(C(=O)NCc3ccc(F)cc3)c2)cc1,-4,3
CCN(CCOc1ccccc1C)C(=O)CC1CNCCO1 (stereo not drawn),0,-4
O=C(COc1ccc(Cl)cc1)N(Cc1nc2cc(Cl)ccc2o1)C1CCCC1,6,6
O=C(Cc1cccs1)NC1CCN(c2ccccc2Cl)C1=O (stereo not drawn),5,3
CCCc1nc(C)cc(-c2cc(N)nc3[nH]ccc23)n1,3,5
CCc1nc2n(n1)C(=O)C(C(c1ccc(Cl)cc1)N1CCN(CC)CC1)S2 (stereo not drawn),-5,-8
CC(C)n1cc(C#N)c(NC(=O)Cc2cc(F)ccc2F)n1,2,2
COCCn1c(O)c(C=NN2CC(=O)NC2=O)c(=O)[nH]c1=S,-1,-7
CCOC(=O)c1nn(-c2ccc(C)cc2)c(=O)cc1NCc1ccccc1Cl,5,5
CCOC(=O)C1CCCN(C(=O)CC(c2ccc(OC)c(OC)c2)c2c[nH]c3c(CC)cccc23)C1 (stereo not drawn),5,6
CCOC(=O)N1CCC(NC(C)c2ncnn2CC)CC1 (stereo not drawn),6,2
CCOc1ccc2nc(N3CCCN(Cc4nc5ccccc5s4)CC3)nc(C)c2c1,8,0
COc1cc2c(cc1OC)CN(C1CCCN(C(=O)CCc3ccccc3)C1)CC2 (stereo not drawn),2,27
c1coc(-c2nc(CNC3CCC4(CCNCC4)CC3)no2)c1,10,5
CC(C)(C)c1nnnn1CC(=O)N(CC#N)c1ccccc1,18,7
CC1=NN(CCCO)c2nc3c(c(=O)n(Cc4cc(C)ccc4C)c(=O)n3C)n2C1C (stereo not drawn),1,-1
CC(=NN1CCN(Cc2cccc3ccccc23)CC1)c1cccc(Br)c1,-4,-9
Cc1nn(C)c(Cl)c1C1CCCN1c1ncccc1C#N (stereo not drawn),0,0
CC(Cc1ccco1)NS(=O)(=O)c1ncn(C)c1Cl (stereo not drawn),5,2
Cc1ccoc1C(=O)NCc1csc(Br)c1,-12,-15
O=C(O)CN1C(=O)C2C3C=CC(CC3)C2C1=O (stereo not drawn),0,2
# (further entries)
SMILES,NPYLR7 agonist,NPYLR7 agonist max-min
Cc1cccn2c(=O)c3cc(C(=O)N4CCOCC4)sc3nc12,11,5
Cc1ncsc1CCC(=O)NCc1cnn2ccccc12,-4,-9
CC(=O)CCCCn1cnc2c1c(=O)n(C)c(=O)n2C,-8,-13
COCCN(Cc1ccc(OS(=O)(=O)c2ccc(F)cc2)cc1)C(=O)c1ccco1,0,7
CCOC(=O)C1(Cc2ccc(OC)cc2)CCN(S(=O)(=O)c2ccc(CC)s2)CC1,6,3
COc1ccc(C(C)N(C)CCOC2CCCCC2C)cc1 (stereo not drawn),2,2
O=C(c1ccco1)N1CCCC(OCc2cccc(Cl)c2)C1 (stereo not drawn),-10,-5
CCC(OC(=O)c1cccc(NC(C)=O)c1)C(=O)Nc1ccc(F)cc1 (stereo not drawn),3,1
COC(=O)[C@@H](C)NC(=O)[C@H]1CN(S(=O)(=O)c2ccccc2)CCN1C(=O)N1CCOCC1,-3,-12
COCC(=O)N1CCC(C(=O)Nc2ccc(Oc3ccccc3F)cc2)CC1,-1,-1
COc1ccc(Cc2nnc(C3CCN(C(=O)Nc4cccs4)CC3)s2)cc1,-3,-3
CC(Cn1cccn1)C(=O)N1CCC(Cc2cccc(C(=O)O)c2)CC1 (stereo not drawn),3,1
COc1ccc(-c2ccccc2OC(C)C(N)=O)cn1 (stereo not drawn),1,-2
Cc1ccc(-c2cn3cccc(C)c3n2)cc1,7,4
COCc1ccc(C(=O)N(C)CCSc2ccc(C)cc2)s1,-3,-6
COC(=O)c1ccc(C2c3c(oc4cc(C)c(C)cc4c3=O)C(=O)N2c2cc(C)on2)cc1 (stereo not drawn),5,4
COc1ccc(C(=O)NCCn2cc(SCC(=O)NCc3ccccc3)c3ccccc32)cc1,-4,-6
Cc1ccsc1CNC(=O)CN(C)CC(=O)N1CCOCC1,6,4
COC(=O)C1=C(C)N=c2s/c(=C/c3ccc(Cl)cc3)c(=O)n2C1c1ccc(OC(C)=O)cc1 (stereo not drawn),14,17
O=C(N/N=C\c1cccs1)c1cc(-c2cccc3ccccc23)n[nH]1,18,21

# Compound profiles, as listed above. Order of screens: NPYLR7 agonist, NPYLR7 agonist max-min
# Listed for `O=C(N/N=C\c1cccs1)c1cc(-c2cccc3ccccc23)n[nH]1` = 18, 21
# Listed for `CC(Cn1cccn1)C(=O)N1CCC(Cc2cccc(C(=O)O)c2)CC1` (stereo not drawn) = 3, 1
# Listed for `COC(=O)c1ccc(C2c3c(oc4cc(C)c(C)cc4c3=O)C(=O)N2c2cc(C)on2)cc1` (stereo not drawn) = 5, 4
# Listed for `COc1ccc(C(=O)NCCn2cc(SCC(=O)NCc3ccccc3)c3ccccc32)cc1` = -4, -6
# Listed for `COC(=O)C1=C(C)N=c2s/c(=C/c3ccc(Cl)cc3)c(=O)n2C1c1ccc(OC(C)=O)cc1` (stereo not drawn) = 14, 17

# Entries from the list above that have a COOH group:
SMILES,NPYLR7 agonist,NPYLR7 agonist max-min
CN(CC[C@@H](Oc1ccc(-c2ccccc2)cc1)c1ccc(F)cc1)CC(=O)O,-14,-20
O=C(O)CN1C(=O)C2C3C=CC(CC3)C2C1=O (stereo not drawn),0,2
CC(Cn1cccn1)C(=O)N1CCC(Cc2cccc(C(=O)O)c2)CC1 (stereo not drawn),3,1

# New compounds follow.
SMILES,NPYLR7 agonist,NPYLR7 agonist max-min
CC(C)CCCNC(=O)C1CC(C)Nc2ccccc21 (stereo not drawn),10,6
C=CCn1c(SC(C)C(=O)NC(N)=O)nnc1-c1cc2c(s1)CCC(CC)C2 (stereo not drawn),-5,-5
CCC1=NN(C(=O)COc2ccc(C)c(Cl)c2)C(O)(C(F)(F)F)C1 (stereo not drawn),-2,1
COCCNC(=O)c1cc(NC(=O)Nc2ccc(Cl)cc2Cl)ccc1N1CCC(C)CC1,19,28
Cc1nc(C(C)C)ncc1C(=O)N1CCn2nc(C(=O)NC3CC3)cc2C1,11,11
CCC(C)N(CC(=O)N(Cc1ccccc1)Cc1ccc(C)s1)C(=O)Nc1ccc(C(F)(F)F)cc1 (stereo not drawn),-11,-15
COc1ccc(CNc2c(C#N)cnc3cc(OC)ccc23)cc1,-4,-10
CCNC(=S)N1CCc2cc(OC)c(OC)cc2C1CNC(=O)c1ccccc1Cl (stereo not drawn),18,27
CCc1c(C)nc(-c2ccc(OC)cc2)nc1N1CCNCC1,-3,7
NC(=O)[C@H](Cc1ccccc1)NC(=O)c1c2c(nc3cc(Br)ccc13)CCCC2,-1,18

# 2 neighbouring entries already listed:
SMILES,NPYLR7 agonist,NPYLR7 agonist max-min
OC1CCCc2c(OCCCOc3ccc(F)cc3)cccc21 (stereo not drawn),0,0
Cc1ccc2nc(CN(C)c3cc(C4CCNCC4)nc(C)n3)[nH]c2c1,4,19

# Continued:
SMILES,NPYLR7 agonist,NPYLR7 agonist max-min
CCC(C)C(=O)NNC(=O)C1(c2cccc(C(F)(F)F)c2)CCOCC1 (stereo not drawn),3,-2
COc1ccc(S(=O)(=O)Oc2ccccc2CN(C(=O)C(C)C)C2CC2)cc1,13,8
C[C@@]1(O)CCN(C(=O)CCN)C[C@@H]1Cc1ccccc1,3,1
CNC(=O)c1nnc2n1CCN(C(=O)c1ccc(C)cc1C)C2,6,2
COc1cccc(OC)c1-c1ccc(-c2csc(N)n2)cc1,26,15
CC(=O)c1cccc(NC(=O)Cn2nc3c(cc2=O)CCCC3)c1,-8,-15
Fc1ccc(CN2CCCn3cccc3C2c2ccoc2)c(F)c1 (stereo not drawn),1,11
S=c1nc[nH]c2c1oc1ccccc12,22,16
CCOCCN1CCC=C(C2c3nc[nH]c3CCN2C(C)=O)C1 (stereo not drawn),1,0
CCCN1C(=O)C2(CCCCC2)NC1c1cnc(N2CCCC2)nc1 (stereo not drawn),7,7
COc1nc(N(c2ccccc2)c2ccccc2)nc(-n2ccnc2)n1,6,5
CCc1nc2ccc(C(=O)Nc3cc(-c4ccccc4)ccc3OC)cn2c1N(CC)CCN(C)C,-8,-10
CCN(CC)c1ccc(CN(CCOC)C(=O)NC(C)C)c(OS(=O)(=O)c2ccc(OC)cc2)c1,31,27
CCN(CC)C(=O)c1cnc2c(-c3cccc(Cl)c3)cnn2c1C,8,0
CCC(C)N(Cc1ccncc1)Cc1ccc(NC(C)=O)cc1 (stereo not drawn),21,10
COCC(C)NC(=O)c1cnn2c1NC(c1ccccc1)CC2C(F)(F)F (stereo not drawn),-7,-10
O=C(Cc1cccnc1)Nc1cc(CCc2ccccc2)[nH]n1,8,6
CC1=C(C)C(=O)C(CCCCC#CCCCC#CCO)=C(C)C1=O,7,-2
CC(C)N1CCC(N2CCN(C/C=C/c3ccc(F)cc3)CC2CCO)CC1 (stereo not drawn),-1,-5
Cc1cc(N2C(=O)C3CC=CCC3C2=O)no1 (stereo not drawn),8,8
Cc1cccc(NC(=O)CN2C(=O)NC(C)(c3cc(F)ccc3F)C2=O)c1 (stereo not drawn),7,12
CN(C)c1cc(C(=O)NCC(=O)Nc2ccc(Br)cc2)ccn1,9,7
CCc1nc2ncc3c(=O)n(N)ccc3n2n1,2,0
COCc1cc(C)nc(OCC(=O)N/N=C\c2ccc(O)c([N+](=O)[O-])c2)c1C#N,4,-2
O=C(CN1CCc2ccccc2C1)Nc1nc(-c2cc3ccccc3o2)cs1,5,-1
O=C(COc1ccc([N+](=O)[O-])cc1)NCc1ccc2c(c1)OCO2,1,-3
O=S(=O)(Cc1ccon1)N1CC2(CCCC2)c2ccccc21,-4,-4
CN(C(=O)c1ccco1)C1CCS(=O)(=O)C1 (stereo not drawn),2,3
COc1ccc(-n2c(Cc3c(C)n[nH]c3C)n[nH]c2=O)c(C)c1,1,1

# These rows are one share of the data (hit frequency here may not be typical).
